HSV replic up: increases HSV replication in cells; HSV replication augmentation in cells, fold increase; maximum fold increase; hit rate 0.005% among 220,000; AID 1956;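 active = peak rise of 1.5-fold or more in the series; tested in PC3 cells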;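 note: first round at 10 µM; read as green reporter fluorescence; hits show the peak of a series up to 25 µM; 1 = signal of infected wells without compound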
Insulin prom inh: TRM-6 insulin promoter activity inhibition; TRM-6 cells (human fetal islet line), insulin promoter-eGFP reporter, imaging; reporter expression induced with tamoxifen; inhibition, % at 2 µM; hit rate 0.9% among 130,000;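 active = inhibition above the mean plus 3 SD, with well images judged a real hit on visual review, cut at about 60% in these data, passing the limit was not always enough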
GALR2 ag: GALR2 (human) receptor agonism; GALR2-expressing cells, agonist activation read-out; activation, %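 (tested at 5 µM)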; O43603; AID 803; hit rate 0.48% among 140,000;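 active = above mean plus 3 SD of all compounds, about 5% in these data, not always enough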;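 note: 0% = vehicle buffer wells and 100% = reference agonist at full effect; tested in CHO reporter cells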
RGS16-Gao HTS: modulates binding between human RGS16 and Galphao; O15492+P09471; bead-based flow cytometry RGS16-Galphao binding, fluorescence; actives lie on both sides; binding response (% of control), % at 10 µM; hit rate 0.38% among 220,000; AID 1441;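 active = below 25% or above 175%, edge rows of some plates excepted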;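 note: Galphao activated by GDP with aluminum fluoride before binding; 100% = wells without compound and 0% = beads without RGS; some results beyond the cut were filed as inactive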
PKD1 kinase inh: blocks activity of human protein kinase D1; Q15139; PKD1 kinase fluorescence polarization assay; inhibition, %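 (about 10 µM by stock and volumes)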; hit rate 0.056% among 200,000; AID 797;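 active = inhibition of 50% or more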;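 note: controls were vehicle for no effect and a reference inhibitor for full effect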
Target sequence (Q15139 whole entry, looked up): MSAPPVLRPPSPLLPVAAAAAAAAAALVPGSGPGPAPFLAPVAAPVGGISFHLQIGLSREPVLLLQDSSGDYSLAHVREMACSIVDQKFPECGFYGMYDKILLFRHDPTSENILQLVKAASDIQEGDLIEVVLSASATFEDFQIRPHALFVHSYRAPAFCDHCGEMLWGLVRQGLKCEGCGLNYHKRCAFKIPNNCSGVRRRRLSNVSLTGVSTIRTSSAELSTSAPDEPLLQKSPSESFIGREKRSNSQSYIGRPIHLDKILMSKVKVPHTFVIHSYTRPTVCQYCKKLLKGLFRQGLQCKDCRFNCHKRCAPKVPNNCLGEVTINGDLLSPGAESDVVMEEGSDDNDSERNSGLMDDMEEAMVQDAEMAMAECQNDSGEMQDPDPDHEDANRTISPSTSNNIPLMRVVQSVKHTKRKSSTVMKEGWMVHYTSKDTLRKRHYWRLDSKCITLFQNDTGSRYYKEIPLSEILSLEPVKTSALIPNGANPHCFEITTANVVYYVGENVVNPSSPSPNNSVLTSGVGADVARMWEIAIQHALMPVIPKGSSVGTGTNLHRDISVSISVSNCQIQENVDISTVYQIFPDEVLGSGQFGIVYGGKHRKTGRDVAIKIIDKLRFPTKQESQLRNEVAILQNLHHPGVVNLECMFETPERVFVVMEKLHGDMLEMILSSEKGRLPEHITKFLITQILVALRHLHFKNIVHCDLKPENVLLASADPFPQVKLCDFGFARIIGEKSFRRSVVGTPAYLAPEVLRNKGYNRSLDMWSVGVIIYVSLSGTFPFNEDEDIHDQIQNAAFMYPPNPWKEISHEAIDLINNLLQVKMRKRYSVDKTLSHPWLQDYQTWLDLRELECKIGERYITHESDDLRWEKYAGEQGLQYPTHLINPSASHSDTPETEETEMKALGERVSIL
Insulin prom inh cell count: also measured in Insulin prom inh; calls as there; normalized cell count, %; measured here: cell count, toxicity; reference of the scale not given here;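 cells exposed to compound for 48 h; stained nuclei by imaging scaled within each plate; lower means fewer cells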
HSV replic up primary fold: also measured in HSV replic up; calls as there; fold increase; compound at 10 µM; measured here: primary screen fold increase 10 uM; tested in PC3 cells;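 GFP signal in the first replicate; 1 = infected wells without compound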
Active calls of the source: *; i = inactive; nt = not tested or not shown. An unsorted share of the library. About 1.3% of those tested had a hit in this group.

SMILES	HSV replic up	HSV replic up primary fold	Insulin prom inh	Insulin prom inh cell count	GALR2 ag	RGS16-Gao HTS	PKD1 kinase inh
CC(C)c1nnc(NC(=O)C2CCCN2C(=O)Nc2ccccc2F)s1 (configuration not stated)	i	0.95	nt	nt	nt	99	-4
Cc1ccc(C(=O)NC(N2CCCC2)C(Cl)(Cl)Cl)cc1 (configuration not stated)	i	0.77	nt	nt	-1.3	99	-10
COC(=O)c1ccc(N=CC2=C(O)CC(c3ccccc3)CC2=O)cc1 (configuration not stated)	i	0.95	nt	nt	nt	105	nt
S=C(NC1CCCCC1)N1CCN(Cc2ccccc2Cl)CC1	i	1.2	nt	nt	nt	101	1
CCOC(=O)C1CCN(C(=O)COc2ccc(N(C)S(=O)(=O)c3ccc(OCC)cc3)cc2)CC1	i	1	nt	nt	nt	105	-1
O=C1c2ccccc2C(Nc2ccc(Cl)cc2)N1CCN1CCOCC1 (configuration not stated)	i	1	nt	nt	-0.7	101	2
Cc1ccc(N2CC(C(=O)Nc3cc(C)on3)CC2=O)cc1 (configuration not stated)	i	0.86	23	46	-2.0	103	-8
O=c1c(C=NCC2CCCO2)c(-c2ccccc2)[nH]n1-c1ccc([N+](=O)[O-])cc1 (configuration not stated)	i	0.91	nt	nt	nt	102	nt
Cc1nc2ncnn2c(N2CCN(c3cccc(C(F)(F)F)c3)CC2)c1C	i	0.86	-38	66	-2.7	100	5
O=C1C2C(c3ccccc3)C=CC(c3ccccc3)C2C(=O)N1c1ccncc1 (configuration not stated)	i	1.1	23	111	0.2	132	4
COc1cccc(CN(C(=O)Cn2nnc(-c3ccccc3F)n2)C(C(=O)NC(C)(C)C)c2ccncc2)c1 (configuration not stated)	i	0.88	35	111	nt	109	-4
CCOc1ccccc1C(=O)N/N=C/c1c[nH]c2ccccc12	i	0.97	0	104	nt	110	4
Cc1noc(C)c1C(=O)OCC(=O)Nc1cccc(S(N)(=O)=O)c1	i	0.98	nt	nt	nt	100	-10
O=S(=O)(NC1=NCCCCC1)c1ccc2sc(NS(=O)(=O)c3ccc4ccccc4c3)nc2c1	i	1.2	nt	nt	nt	87	nt
O=C(NN=C1CCCC1)NC1CCCCC1	i	0.97	-3	60	-2.8	64	-1
CCCCC(=O)NC(c1ccco1)c1c(O)ccc2ccccc12 (configuration not stated)	i	0.92	-46	50	-3.0	99	16
CCCC(O)(CCN1CCCCC1)c1ccc(OCC)cc1 (configuration not stated)	i	1	nt	nt	-3.5	102	-10
COc1ccccc1C(=O)N/C(=C/c1ccc(Br)cc1)C(=O)N1CCCC1	i	0.93	nt	nt	nt	106	8
O=C(COC(=O)c1n[nH]c2ccccc12)NC(=O)NC12CC3CC(CC(C3)C1)C2	i	0.72	9	110	-0.3	105	-5
CS(=O)(=O)N1CCN(c2ccc(NC(=O)c3cccnc3Cl)cc2)CC1	i	0.92	38	123	0.8	98	6
c1nc(NC2CCCCCC2)c2[nH]cnc2n1	i	0.92	70*	100*	-1.3	106	4
O=C1C2C3C=CC(C3)C2C(=O)N1c1ccc2c(c1)CCC2 (configuration not stated)	i	0.87	40	110	-1.2	98	-5
O=c1c2ccccc2nc2c3ccccc3c(NCCN3CCOCC3)nn12	i	0.85	-9	46	0.7	101	-10
O=C(Nc1ccccc1)C1=C[C@@H](c2ccccc2)C[C@@H](OCc2ccc(CO)cc2)O1	i	0.82	nt	nt	nt	98	-5
CCOC(=O)c1ccc(COC(=O)c2cc3ccccc3oc2=O)o1	i	1.2	-53	80	-2.7	103	-3
CCc1ccc(C(=O)NNC(=O)OC)cc1	i	0.93	7	125	nt	108	1
S=C(NCCc1ccccc1)Nc1ccccc1N1CCOCC1	i	0.89	nt	nt	nt	99	-5
CC1CCC2(CC1)N=C(N)Nc1nc3ccccc3n12 (configuration not stated)	i	1.2	11	100	0.0	102	-8
COc1ccc(CNCc2cccc(Oc3ccccc3)c2)cc1	i	0.96	nt	nt	nt	103	5
CCCn1c(SCC(=O)Nc2cc(S(=O)(=O)N3CCOCC3)ccc2Cl)n[nH]c1=O	i	0.91	-21	91	-1.6	47	7

Some of these compounds in order of SMILES length, rising.
SMILES	HSV replic up	HSV replic up primary fold	Insulin prom inh	Insulin prom inh cell count	GALR2 ag	RGS16-Gao HTS	PKD1 kinase inh
CC1CCC2(CC1)N=C(N)Nc1nc3ccccc3n12 (configuration not stated)	i	1.2	11	100	0.0	102	-8
CCCCC(=O)NC(c1ccco1)c1c(O)ccc2ccccc12 (configuration not stated)	i	0.92	-46	50	-3.0	99	16
Cc1ccc(N2CC(C(=O)Nc3cc(C)on3)CC2=O)cc1 (configuration not stated)	i	0.86	23	46	-2.0	103	-8
CC(C)c1nnc(NC(=O)C2CCCN2C(=O)Nc2ccccc2F)s1 (configuration not stated)	i	0.95	nt	nt	nt	99	-4
COC(=O)c1ccc(N=CC2=C(O)CC(c3ccccc3)CC2=O)cc1 (configuration not stated)	i	0.95	nt	nt	nt	105	nt
Cc1nc2ncnn2c(N2CCN(c3cccc(C(F)(F)F)c3)CC2)c1C	i	0.86	-38	66	-2.7	100	5

Next structures:
SMILES	HSV replic up	HSV replic up primary fold	Insulin prom inh	Insulin prom inh cell count	GALR2 ag	RGS16-Gao HTS	PKD1 kinase inh
Cc1nn2c(-c3ccco3)nnc2c2ccccc12	i	0.76	50	90	-1.9	131	-4
Cn1c(CSc2nc3ccccc3s2)n[nH]c1=S	i	0.99	nt	nt	-1.6	97	11
Cc1cccc(Nc2n[nH]c(=S)s2)c1C	i	0.95	nt	nt	-2.3	105	-5
Cc1nc(N2CCCCC2)sc1C=O	i	0.98	nt	nt	nt	101	-7
COc1ccc(N2CCN(CC(=O)N3CCC(C)CC3)CC2)cc1	i	1	nt	nt	-2.0	100	5
Cc1cc(NC(=O)c2ccco2)ccc1-n1cnnn1	i	0.95	56	107	-0.7	104	-4
CCN1C(=O)/C(=C/c2nc3ccccc3c(=O)n2-c2ccc(C)cc2)c2ccccc21	i	0.88	nt	nt	0.1	118	-12
Cc1ccc(NC(=O)Cn2nc(C)c(S(=O)(=O)N(C)C)c2C)cc1C	i	0.82	nt	nt	nt	103	0
Cc1cc(C(=O)OCc2nnc(-c3ccccc3)o2)c(C)n1-c1ccccc1	i	0.99	4	114	-2.5	106	1
O=C(Cc1nc(-c2ccc(Br)s2)cs1)NCCN1CCOCC1	i	1.1	0	73	-0.6	90	5

A section from further up, as a working copy:
SMILES	HSV replic up	HSV replic up primary fold	Insulin prom inh	Insulin prom inh cell count	GALR2 ag	RGS16-Gao HTS	PKD1 kinase inh
Cc1nc(N2CCCCC2)sc1C=O	i	0.98	nt	nt	nt	101	-7
COc1ccc(N2CCN(CC(=O)N3CCC(C)CC3)CC2)cc1	i	1	nt	nt	-2.0	100	5
Cc1cc(NC(=O)c2ccco2)ccc1-n1cnnn1	i	0.95	56	107	-0.7	104	-4
CCN1C(=O)/C(=C/c2nc3ccccc3c(=O)n2-c2ccc(C)cc2)c2ccccc21	i	0.88	nt	nt	0.1	118	-12
Cc1ccc(NC(=O)Cn2nc(C)c(S(=O)(=O)N(C)C)c2C)cc1C	i	0.82	nt	nt	nt	103	0
Cc1cc(C(=O)OCc2nnc(-c3ccccc3)o2)c(C)n1-c1ccccc1	i	0.99	4	114	-2.5	106	1

The list continues.
SMILES	HSV replic up	HSV replic up primary fold	Insulin prom inh	Insulin prom inh cell count	GALR2 ag	RGS16-Gao HTS	PKD1 kinase inh
CCOC(=O)c1sc(=S)n(CC)c1NC(=O)c1ccccc1C	i	0.94	nt	nt	nt	104	nt
CCNc1nc(NC(C)C)nc(NC(C)(C)C)n1	i	0.74	nt	nt	nt	111	0
CCOc1ccccc1C(=O)OCC(=O)Nc1ccc(OC(F)F)cc1	i	1.1	32	87	-1.5	100	-4
COc1ccc(-c2c(C)oc3c(CN4CCN(C)CC4)c(O)ccc3c2=O)cc1	i	0.98	nt	nt	-0.2	90	-8
CC(=O)NC(CC(C)C)C(=O)NC(=O)NCc1ccccc1 (configuration not stated)	i	0.96	22	97	-1.4	70	-11
CC(=O)Cn1nnc2sc3c(c2c1=O)CCC(C(C)(C)C)C3 (configuration not stated)	i	1	nt	nt	nt	100	5
CC1CCN(C(=O)C2CC(c3ccc(F)cc3)=NO2)CC1 (configuration not stated)	i	0.84	nt	nt	-0.4	97	-3
COc1ccccc1CC(=O)Nc1ccccc1O	i	1	23	108	-0.4	97	-2
Cn1nnc(NC(=O)CSc2nnnn2-c2ccc(F)cc2)n1	i	0.72	-133	118	-0.5	102	6
CCCN1CCN(CCCNC(=O)C2CCCN(c3nnc(-n4cccc4)s3)C2)CC1 (configuration not stated)	i	1	nt	nt	-1.2	103	2
Cc1c(CN2CCCC(C(=O)c3cccc(Cl)c3)C2)c(=O)n(-c2ccccc2)n1C (configuration not stated)	i	0.93	nt	nt	nt	97	5
CCCC(=O)Nc1ccc(Sc2ccc([N+](=O)[O-])cc2)cc1	i	0.93	40	104	-1.0	99	3
O=C(Nc1ccc([N+](=O)[O-])cc1)C1CC12CCC2 (configuration not stated)	i	1	nt	nt	nt	97	-2
CC1(C)C2CCC1(C(=O)O)c1nc3ccccc3nc12 (configuration not stated)	i	0.99	nt	nt	nt	100	-1
CO/N=C/C(=N\Nc1ccc(OC)cc1)C(=O)c1ccc(F)cc1	i	0.84	29	81	nt	37	6
Cc1nc2nc[nH]n2c(=O)c1NC(=O)c1cccc(OCC(C)C)c1	i	0.92	nt	nt	-1.0	125	-1
CCn1c(SCC(=O)Nc2ccccc2C)nnc1-c1ccccc1O	i	1.1	6	49	-1.7	102	5
Cc1cc(NCCO)c2ccccc2n1	nt	nt	5	147	-0.6	76	-3
O=C(NCCN1C(=O)S/C(=C\c2cccs2)C1=O)c1ccc(=O)[nH]c1	i	0.97	27	96	-0.4	99	7
COc1ccc(OC)c(NC(=O)CSc2ccc3ccccc3c2)c1	i	0.88	3	65	-0.6	143	-9
O=C(CSc1nnc(Cn2nnc3ccccc32)o1)Nc1cccc(Cl)c1	i	1.1	15	58	-1.3	99	-7
Cc1ccccc1N1C(=O)C2ON(c3ccccc3)C(c3ccco3)C2C1=O (configuration not stated)	i	0.92	nt	nt	nt	90	nt
CCC(=O)Nc1cc(C(=O)OC(C(=O)c2ccc(C)c(C)c2)c2ccccc2)ccc1C (configuration not stated)	i	0.75	6	114	-0.9	98	-11
COC(=O)CCC/C=C1/SCC(NC(=O)c2ccccc2)/C1=N/O (configuration not stated)	i	1.1	-18	142	nt	100	-12
CSc1nc(C)cc(OCC#N)n1	i	0.84	10	83	-0.6	105	-4
Cc1cccc(C)c1-n1c(C)nn(-c2ncc(C(F)(F)F)cc2Cl)c1=O	i	0.91	nt	nt	nt	99	-6
CCN1C(=O)/C(=C2/Sc3ccc(OC)cc3N2C)SC1=Nc1ccc(C(C)=O)cc1	nt	nt	8	82	0.4	nt	-6
O=C(Nc1ccc(O)cc1)c1cc2ccccc2c(=O)s1	i	0.83	nt	nt	nt	104	6
C=CCn1cc(C(=O)N2CCc3ccccc3C2)c(=O)c2cc(S(=O)(=O)N(CC)CC)ccc21	i	0.85	-400	86	-2.3	95	-6
Cc1onc(-c2ccccc2)c1C(=O)NC(CC(=O)O)c1ccc(OC(C)C)cc1 (configuration not stated)	nt	nt	15	104	-2.6	99	1

The final 2 entries of the part before lead into the next.
SMILES	HSV replic up	HSV replic up primary fold	Insulin prom inh	Insulin prom inh cell count	GALR2 ag	RGS16-Gao HTS	PKD1 kinase inh
C=CCn1cc(C(=O)N2CCc3ccccc3C2)c(=O)c2cc(S(=O)(=O)N(CC)CC)ccc21	i	0.85	-400	86	-2.3	95	-6
Cc1onc(-c2ccccc2)c1C(=O)NC(CC(=O)O)c1ccc(OC(C)C)cc1 (configuration not stated)	nt	nt	15	104	-2.6	99	1
O=c1nc(N2CCOCC2)ccn1-c1nc(-c2ccccc2)oc1-c1ccccc1	i	1.1	nt	nt	-1.1	104	-1
COC(=O)CSc1nnc(C)n1-c1cccc(C#N)c1	i	1	-26	95	-0.6	109	-3
COc1ccc(N2CC(C(=O)Nc3ncccc3C)CC2=O)cc1 (configuration not stated)	i	0.98	44	119	-2.7	87	0
O=C(Nc1ccc2c(c1)C(=O)NC2=O)c1ccc(S(=O)(=O)N2CCCC2)cc1	i	1	0	117	nt	106	-4
S=C(NN=C1CCCCCC1)Nc1ccc(Cl)cc1	i	0.86	-30	116	0.3	95	-8
COC(=O)CCC(=O)OC1(C)C(=O)C=C2C=C(C3CC3)N(Cc3ccc4c(c3)OCO4)C=C2C1=O (configuration not stated)	i	0.91	nt	nt	nt	95	nt
CC(C)n1c(=S)[nH]c2cc(C(F)(F)F)ccc21	i	1	nt	nt	nt	109	nt
C[C@]12CCC3c4ccc(OCC(=O)O)cc4CCC3C1CCC2=O (some centres not stated)	i	0.94	nt	nt	nt	102	nt

Screening results (PubChem)
